High-throughput results deposited in PubChem by several laboratories.
Vif A3G: inhibitors of Vif binding to APOBEC3G peptide, primary screen, biochemical, TR-FRET, GST-Vif 1-94, biotin-A3G peptide, dose response retest (AID 1117319). one-dose inhibition, %; IC50 in µM for titrated hits. TR-FRET GST-Vif / biotin-A3G peptide binding; higher % means a stronger effect; test concentration not given here; strong numbers were not always called active. Virion infectivity factor (Human immunodeficiency virus type 1 group M subtype B (isolate …. 260,000 tested, 0.57% active;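 active = above the screen mean plus three standard deviations and confirmed in dose response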;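 also: Vif residues 1-94 fused to GST binding biotinylated APOBEC3G peptide 110-148; 0% = full assay without inhibitor and 100% = GST in place of GST-Vif; retest series ran down from 100 µM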
HNF4A DNA FP: change in binding of human HNF4A to DNA, primary screen, biochemical, fluorescence polarization, FITC-DNA; Hepatocyte nuclear factor 4-alpha (Homo sapiens), P41235; 1 h; activity change, % at 10 µM; 360,000 tested, 0.3% active; AID 1224865, 2016; in the data active = activity change above about 30%, passing the limit was not always enough;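 also: controls were the assay level and a saturating level of protein; the project sought stronger binding though the title names inhibitors; some compounds called inactive have numbers as strong as hits; positive values seem to mean higher polarization but the record does not say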
Target sequence (P41235 whole entry, looked up): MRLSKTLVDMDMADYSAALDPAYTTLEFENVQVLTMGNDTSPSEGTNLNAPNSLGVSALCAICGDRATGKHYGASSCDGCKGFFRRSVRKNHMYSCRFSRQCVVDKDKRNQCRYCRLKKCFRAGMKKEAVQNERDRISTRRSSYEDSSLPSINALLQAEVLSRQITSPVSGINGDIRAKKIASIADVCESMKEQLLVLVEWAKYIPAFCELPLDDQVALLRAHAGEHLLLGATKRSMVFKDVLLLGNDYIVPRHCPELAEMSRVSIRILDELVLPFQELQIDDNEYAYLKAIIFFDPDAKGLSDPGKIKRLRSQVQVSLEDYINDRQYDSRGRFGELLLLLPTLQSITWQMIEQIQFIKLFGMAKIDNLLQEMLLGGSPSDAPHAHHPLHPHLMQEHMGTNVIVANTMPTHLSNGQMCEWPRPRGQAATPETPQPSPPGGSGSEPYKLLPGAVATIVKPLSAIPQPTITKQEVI
Active calls of the source: *. A portion of the library (hit frequency here may not be typical).

For Cc1cccc(NC(=O)CSc2nc3ccccc3c(=O)n2C)c1C the results were Vif A3G -6.5% and HNF4A DNA FP -2.3.
`Cc1ccc([C@@H]2C[C@H]3[C@@H](CN2S(=O)(=O)c2ccc(C)cc2)C(=O)C[C@@H](c2ccc(C)cc2)N3S(=O)(=O)c2ccc(Cl)cc2)cc1` gave Vif A3G -1.4% and HNF4A DNA FP -0.7.
For O=C1NC(Cc2ccccc2)c2nc3ccccc3c(=O)n2-c2ncccc21 (stereo unspecified) the results were Vif A3G 0.8% and HNF4A DNA FP 7.1.
`CN(C(=O)CSc1nc(N)cc(=O)[nH]1)C1CCCCC1` gave Vif A3G -4.8% and HNF4A DNA FP -0.7.
O=C(C1CC(=O)N(c2ccc(F)c(Cl)c2)C1)N1CCOCC1 (stereo unspecified) was read as Vif A3G 1.0% and HNF4A DNA FP -0.5.
C[C@@H]1Cn2cnc(C(=O)NCc3ccc(CNC(=O)OC(C)(C)C)cc3)c2C(=O)N1 was read as Vif A3G 4.6% and HNF4A DNA FP 3.5.
`O=C(NN=Cc1ccc2c(c1)CCN2)c1cccs1` gave Vif A3G 0.1% and HNF4A DNA FP -2.7.
Screening C[C@H]1CN([C@@H](C)CO)C(=O)c2cc(Br)cnc2O[C@H]1CN(C)C(=O)c1cccnc1 returned Vif A3G 1.6% and HNF4A DNA FP 2.0.
Screening CCC1=C(NCc2ccccc2)COC1=O returned Vif A3G -4.5% and HNF4A DNA FP 1.5.
Screening CCOC(=O)c1cc(-c2sc(NC(=O)c3ccccc3)nc2C)n(-c2ccc(Br)cc2)n1 returned Vif A3G 1.0% and HNF4A DNA FP 2.6.
Cc1cc(C)cc(NC(=O)COC(=O)C2CC3C=CC2C3)c1 (stereo unspecified) was read as Vif A3G -7.9% and HNF4A DNA FP 1.3.
Screening COP(=O)(OC)C(=NNS(=O)(=O)c1ccc(C)cc1)c1ccccc1 returned Vif A3G 9.8% and HNF4A DNA FP -1.8.
`O=C(COC(=O)CNC(=O)c1ccccc1)NC12CC3CC(CC(C3)C1)C2` gave Vif A3G 0.3% and HNF4A DNA FP 2.7.
Cc1ccccc1NC(=O)Cc1nc(COC(=O)CSc2ccc(F)cc2)cs1 was read as Vif A3G -4.4% and HNF4A DNA FP 2.5.
CCCNC(=S)NC1CC2CCCC(C1)N2Cc1ccccc1OC (stereo unspecified) was read as Vif A3G 3.7% and HNF4A DNA FP -1.9.
For CC1(C)CC(=O)C=C(c2ccc(COC(=O)c3cccc(C(F)(F)F)c3)cc2)C1=O the results were Vif A3G -5.7% and HNF4A DNA FP -2.0.
C[C@@H]1CN([C@@H](C)CO)C(=O)CCCn2nncc2CO[C@@H]1CN(C)C(=O)Nc1ccc(C(F)(F)F)cc1 was read as Vif A3G 12.4% and HNF4A DNA FP -0.4.
`O=S1(=O)CCN(Cc2ccccc2)CC1` gave Vif A3G -4.6% and HNF4A DNA FP 3.8.
`N#CN=CN1CC=C(c2ccc(Cl)cc2)CC1` gave Vif A3G -1.3% and HNF4A DNA FP 2.5.
Screening O=C1CCN(CCCN2CCC(=O)N(Cc3ccccc3)C2=S)C(=S)N1Cc1ccccc1 returned Vif A3G -4.3% and HNF4A DNA FP -3.5.
Screening Cc1ccc(C=C2C=C(c3ccccc3)OC2=O)cc1 returned Vif A3G 6.6% and HNF4A DNA FP -0.8.
`CC(=O)Nc1ccc(NC(=O)N2CCOCC2)cc1` gave Vif A3G 2.7% and HNF4A DNA FP 0.9.
`N#CC1(Nc2ccc3c4c(cccc24)CC3)CCCCC1` gave Vif A3G 1.4% and HNF4A DNA FP 4.1.
For C[C@@H]1CN([C@@H](C)CO)C(=O)c2cc(Br)cnc2O[C@H]1CN(C)C(=O)c1ccc2c(c1)OCO2 the results were Vif A3G -1.5% and HNF4A DNA FP 1.1.

Filtered by structure, the entries above containing a cyano group
`N#CN=CN1CC=C(c2ccc(Cl)cc2)CC1` gave Vif A3G -1.3% and HNF4A DNA FP 2.5.
`N#CC1(Nc2ccc3c4c(cccc24)CC3)CCCCC1` gave Vif A3G 1.4% and HNF4A DNA FP 4.1.

Other structures follow:
Screening C[C@@H]1CN([C@@H](C)CO)C(=O)CCCn2nncc2CO[C@@H]1CN(C)S(=O)(=O)c1ccccc1 returned Vif A3G -1.3% and HNF4A DNA FP 0.7.
CN(C)C(=S)Oc1ccccc1C1SCCS1 was read as Vif A3G 5.0% and HNF4A DNA FP 3.2.
Screening O=C1/C(=C/c2ccc3c(c2)OCO3)SC(=S)N1CCC(=O)N(CCO)c1ccccc1 returned Vif A3G 1.3% and HNF4A DNA FP 22.2.
For O=C(C1CCCCC1)N1CCC2CC1c1cc(N3CCCCC3)ccc12 (stereo unspecified) the results were Vif A3G 5.3% and HNF4A DNA FP 8.4.
`O=C(NC1CCN(Cc2ccccc2)CC1)c1ccc(CS(=O)c2ccccc2Cl)o1` (stereo unspecified) gave Vif A3G -1.0% and HNF4A DNA FP 3.4.
For CC(C)=C(NC(=O)c1ccccc1Cl)C(=O)NCCc1nc2ccccc2[nH]1 the results were Vif A3G 2.4% and HNF4A DNA FP 2.2.
For COc1ccc(Cc2noc(=O)[nH]2)cc1 the results were Vif A3G -8.0% and HNF4A DNA FP 0.1.
Screening CCCCCCn1c(=O)n2n(c1=O)C[C@]1(OC(=O)Nc3cccs3)CN(S(=O)(=O)c3ccc(C)cc3)C[C@]1(O)C2 returned Vif A3G -0.3% and HNF4A DNA FP 0.0.
`Cc1ccc(NC(=O)CN(C)C(=O)COC(=O)COc2cc(C)cc(C)c2)cc1` gave Vif A3G -2.6% and HNF4A DNA FP -2.6.
`Cc1ccc(S(=O)(=O)N2C[C@]3(O)C[C@@H]4C(=O)N(c5ccccc5)C(=O)[C@@H]4C[C@]3(OC(=O)NCC3CCCCC3)C2)cc1` gave Vif A3G 0.3% and HNF4A DNA FP -0.2.
`O=C(O)C1CCN(C(=O)c2ccc(S(=O)(=O)N3CCCCCC3)cc2)CC1` gave Vif A3G 10.4% and HNF4A DNA FP -1.4.
Screening CCOc1cc2[nH]c(=S)n(CCC(=O)NC3CCCCC3)c(=O)c2cc1OCC returned Vif A3G 16.1% and HNF4A DNA FP -3.1.
`O=C(NCCN1CCN(Cc2ccccc2)CC1)c1ccc(CS(=O)(=O)c2c(Cl)cccc2Cl)o1` gave Vif A3G 0.3% and HNF4A DNA FP -5.6.
`CCN(CC)S(=O)(=O)c1cccc(NC(=O)COC(=O)c2[nH]c(C)c(C(C)=O)c2C)c1` gave Vif A3G -5.2% and HNF4A DNA FP 1.1.
Screening CCC(=O)N(Cc1cc2cc(OC)ccc2[nH]c1=O)c1ccccc1OC returned Vif A3G -5.4% and HNF4A DNA FP -3.4.
Cc1ccc(S(=O)(=O)N2C[C@]3(O)C[C@@H]4C(=O)N(c5ccccc5)C(=O)[C@@H]4C[C@]3(OC(=O)NC3CCCC3)C2)cc1 was read as Vif A3G -0.3% and HNF4A DNA FP 5.3.
COc1cc2c3c(cccc3c1)C(=O)N(CCN1CCCC1)C2=O was read as Vif A3G 2.5% and HNF4A DNA FP -26.6.
O=S(=O)(NCC1CCCO1)c1ccc(Cl)c2ccccc12 (stereo unspecified) was read as Vif A3G 2.1% and HNF4A DNA FP 0.9.
Screening COC(=O)C(=Cc1ccncc1)c1cccc2ccccc12 returned Vif A3G 9.0% and HNF4A DNA FP -2.5.
Screening Cc1cc(-c2ccc(S(=O)(=O)NCc3ccc(Cl)cc3)cc2)on1 returned Vif A3G 2.5% and HNF4A DNA FP 2.9.
For COc1ccc(C#CC2=CC(=O)CC(C)(C)C2)cc1 the results were Vif A3G -3.6% and HNF4A DNA FP 5.7.
Screening COc1ccc(NC(=O)C[C@H]2C(=O)N(CCc3ccccc3)C[C@@H]2c2ccc(OC)cc2)cc1 returned Vif A3G 4.0% and HNF4A DNA FP 6.6.
`COC(=O)C[C@H]1C[C@H]2c3cc(NC(=O)C4CCC4)ccc3O[C@H]2[C@H](CO)O1` gave Vif A3G -4.0% and HNF4A DNA FP 5.3.
For COC(=O)N(C)C[C@H]1OCc2cnnn2CCCC(=O)N([C@@H](C)CO)C[C@H]1C the results were Vif A3G 0.1% and HNF4A DNA FP -1.4.
`O=C(CC1SC(N2CCCC2)=NC1=O)Nc1ccc(C(=O)NCc2ccccc2F)cc1` (stereo unspecified) gave Vif A3G -4.8% and HNF4A DNA FP -0.5.
For CN(Cc1cnn(-c2ccccc2)c1)C(=O)c1cccc(S(=O)(=O)N(C)c2ccccc2)c1 the results were Vif A3G 3.6% and HNF4A DNA FP 0.7.
Screening CC1(C)CC(=O)C=C(c2n[nH]nc2-c2ccc(F)c(F)c2)C1 returned Vif A3G -13.9% and HNF4A DNA FP -5.8.
Cc1cccc(CNC(=O)C2CCC(=O)N(CCCc3ccccc3)C2)c1 (stereo unspecified) was read as Vif A3G -1.5% and HNF4A DNA FP 0.9.
Cc1ccc([C@H]2C[C@H](O)[C@@H](n3cc(COC(=O)c4ccccc4)nn3)CN2CC2CCCCC2)cc1 was read as Vif A3G -2.4% and HNF4A DNA FP 0.1.
Screening C[C@@H]1CCCCO[C@H](CN(C)S(=O)(=O)c2cccs2)[C@@H](C)CN([C@H](C)CO)C(=O)c2cc(NC(=O)C3CCCCC3)ccc2O1 returned Vif A3G -2.0% and HNF4A DNA FP 1.1.
For COc1ccccc1CNC(=O)C[C@@H]1C[C@H]2c3cc(NC(=O)c4ccc5c(c4)OCO5)ccc3O[C@H]2[C@@H](CO)O1 the results were Vif A3G -2.5% and HNF4A DNA FP -0.1.
For COc1c(F)cccc1C1=CC(=O)C[C@H](c2ccc(F)cc2)C1 the results were Vif A3G 12.1% and HNF4A DNA FP -4.8.
N#CCCN(CCCN1CCOCC1)CN1C(=O)c2ccccc2C1=O was read as Vif A3G -0.6% and HNF4A DNA FP 5.3.
Screening Cc1cccc(-c2ccc3[nH]c4c(c3c2)CCN2C[C@@H]([C@H](C)O)[C@@H](N(C)C(=O)Nc3ccc(F)cc3)C[C@@H]42)c1 returned Vif A3G -3.6% and HNF4A DNA FP 2.5.
For COc1ccc(CC(=O)N2CCN(C(=O)Cc3ccc(OC)c(OC)c3)CC2)cc1OC the results were Vif A3G 3.0% and HNF4A DNA FP 2.0.
CC(=O)Nc1ccc(S(=O)(=O)Nc2nnc(C)s2)cc1 was read as Vif A3G 2.1% and HNF4A DNA FP 3.3.
For Cc1ccc(S(=O)(=O)c2nc(/C=C/c3ccccc3)oc2N2CCC(C(N)=O)CC2)cc1 the results were Vif A3G -6.8% and HNF4A DNA FP 4.7.
For CCN(CC)C(=O)C1=C(C)N(Cc2ccc(C(C)(C)C)cc2)C(=O)C(CC(=O)NCc2cccc3ccccc23)C1 (stereo unspecified) the results were Vif A3G 3.4% and HNF4A DNA FP -1.2.
Screening CCN(CC)C(=O)C1=C(C)N(Cc2ccccc2)C(=O)C(CC(=O)NCc2ccco2)C1 (stereo unspecified) returned Vif A3G -3.0% and HNF4A DNA FP 1.3.
`O=C(NN=Cc1ccc2c(c1)CCC2)c1ccccc1O` gave Vif A3G -5.3% and HNF4A DNA FP 1.9.
C=CCC(=O)N1CCC(n2nccc2NC(=O)c2ccc3c(c2)OCO3)CC1 was read as Vif A3G 4.2% and HNF4A DNA FP -2.0.
`CCc1cccc(C)c1NC(=O)COC(=O)CCn1c(C)csc1=O` gave Vif A3G -0.2% and HNF4A DNA FP 1.7.
`CCOc1ccc(NC(=O)CSc2nc3ccsc3c(=O)n2CCCCC(=O)O)cc1` gave Vif A3G -6.3% and HNF4A DNA FP 1.3.
`COc1ccc(S(=O)(=O)N(C)C[C@H]2OCc3cnnn3CCCC(=O)N([C@H](C)CO)C[C@H]2C)cc1` gave Vif A3G 7.1% and HNF4A DNA FP -3.6.
CCN(CC)S(=O)(=O)c1ccc(N2CCOCC2)c(NC(=O)c2cc3ccccc3o2)c1 was read as Vif A3G -5.2% and HNF4A DNA FP 2.4.
CCN1CCN(c2nc3c(c(=O)[nH]c(=O)n3C)n2Cc2cccc(C)c2)CC1 was read as Vif A3G 9.2% and HNF4A DNA FP 2.5.
`CC(=O)n1cc(C2CC(=O)OC3=C2CC(=O)C(C)(C)C3)c2ccccc21` (stereo unspecified) gave Vif A3G -9.0% and HNF4A DNA FP -0.8.
For CN(C)C(CNC(=O)c1sc2ccccc2c1Cl)c1ccco1 (stereo unspecified) the results were Vif A3G -0.7% and HNF4A DNA FP 4.2.
Screening Clc1ccc(-c2nc3c4ccccc4ccn3c2Cc2ccccc2)cc1 returned Vif A3G -10.2% and HNF4A DNA FP -0.3.
O=C(O)C1(C(=O)O)CCC2(CCCCC2)CC1 was read as Vif A3G -1.2% and HNF4A DNA FP -0.7.
Screening CC(C)COC(=O)N(C)C[C@@H]1OCc2cnnn2CCCC(=O)N([C@@H](C)CO)C[C@H]1C returned Vif A3G -6.6% and HNF4A DNA FP 0.6.
C[C@H](CO)N1C[C@H](C)[C@@H](CN(C)S(=O)(=O)c2ccccc2C#N)OCc2cn(nn2)CCCC1=O was read as Vif A3G 4.2% and HNF4A DNA FP 0.2.

4 compounds picked at random from the list so far:
Screening CC(C)COC(=O)N(C)C[C@@H]1OCc2cnnn2CCCC(=O)N([C@@H](C)CO)C[C@H]1C returned Vif A3G -6.6% and HNF4A DNA FP 0.6.
O=C(O)C1(C(=O)O)CCC2(CCCCC2)CC1 was read as Vif A3G -1.2% and HNF4A DNA FP -0.7.
Screening Clc1ccc(-c2nc3c4ccccc4ccn3c2Cc2ccccc2)cc1 returned Vif A3G -10.2% and HNF4A DNA FP -0.3.
C[C@H](CO)N1C[C@H](C)[C@@H](CN(C)S(=O)(=O)c2ccccc2C#N)OCc2cn(nn2)CCCC1=O was read as Vif A3G 4.2% and HNF4A DNA FP 0.2.
